From PubChem BioAssay
PrP 5UTR inh – inhibition of PrP 5' UTR reporter expression. inhibition, % (concentration not given with the values). AID 488862, 2010. 0.35% of 340,000 active. cell-based PrP 5' UTR mRNA reporter, plate reader;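 active means every replicate at 50% or more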;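 further: 0 = median of the neutral control wells; tested in H4 reporter cells; numbers are from one replicate; inactives centre near -14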
RN4220 kill – growth inhibition of S. aureus RN4220, primary screen, OD600; 16 h; inhibition, % (no concentration beside the values); 0.33% of 330,000 active; AID 1259311, 2017;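 active means z-score of -3 or lower and OD600 up to 0.18 on both plates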;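 further: plate controls were untreated cells for no effect and reference antibiotic for full effect; stock transfer was 100 nL into about 80 µL; one replicate is shown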
Sa ugtP lethal – growth inhibition of ugtP-null S. aureus, primary screen, RN4220 ugtP deletion, OD600; 16 h; some inactives read as strong as hits; growth inhibition, % (concentration not given with the values); 0.54% of 330,000 active;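 active means z-score under -3 and OD600 up to 0.15 on both plates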;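 further: plate controls were untreated wells for no effect and antibiotic for full effect; wells of about 80 µL received 100 nL stock; the first replicate is given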
Mtb hypoxia rep – PubChem AID 1159583. M. tuberculosis hypoxia-regulated fluorescent reporter, fluorescence. fluorescence inhibition, % (no concentration beside the values). 0.1% of 300,000 active;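 active means 35 to 45% if threefold the growth effect, above 45% if 1.5-fold the growth effect; inactive means the rest, general growth blockers included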;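 further: wells of about 50 µL received 100 nL stock; 0% = vehicle wells and 100% = reference inhibitor wells; whole bacteria with a GFP reporter of the hypoxia response; strong numbers were not always called active; many hits fall short of the cut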
BJeLR lethal – MLPCN primary cell-based screen for lethality selective to Ras in HRASV12 cells. BJeLR (HRASV12) viability, CellTiter-Glo ATP luminescence, 48 h; reference of the scale not given here. inhibition, % (no concentration beside the values). 0.17% of 300,000 active;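 active means replicate mean above 50%; inconclusive means above 50% but judged a plate artefact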;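 further: 50 nL library stock added to about 25 µL; numbers are from one replicate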
Bead autofluor – counter-screen for toxin protease inhibitors: compound fluorescence; compound autofluorescence counterscreen, microsphere flow cytometry; stronger effect = higher value; 3.1% of 360,000 active; fluorescence intensity (concentration not given with the values);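 active means at least 3 SD above the mean of all compounds, about 16000 in these data; inconclusive means too few beads counted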;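 further: 100 nL of 1 mM stock went into each well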
Mtb hypoxia rep growth – second read-out of Mtb hypoxia rep, no call of its own (marks repeat the call); growth inhibition, %; measured here: M. tuberculosis growth (absorbance);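 0% = vehicle and 100% = reference antibiotic; read after six days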
Starred values were filed as active, the others as inactive; ? = inconclusive; nt = no result given.

SMILES	PrP 5UTR inh	RN4220 kill	Sa ugtP lethal	Mtb hypoxia rep	Mtb hypoxia rep growth	BJeLR lethal	Bead autofluor
O=C(Nc1cccc(-c2csc(Nc3ccccc3)n2)c1)c1cc([N+](=O)[O-])cc(C(F)(F)F)c1	-9	-18	-26	0	1	-1	3981
CC(=O)N1CCN(C(=S)c2cccc([N+](=O)[O-])c2)CC1	-12	1.7	7	-1	-3	-3	2450
Cc1ccc(O)c(NC(=O)c2cc(-c3ccco3)on2)c1	-67	0.7	-6	12	-4	5	6097
COc1cc(/C=N\NC(=O)c2ccc(C)nc2)ccc1OC(=O)c1cccc(F)c1	-37	nt	nt	nt	nt	-4	3663
CCOc1ccc(-c2[nH]ncc2-c2ccc(Cl)cc2)c(O)c1	-32	-15	9	13	-5	5	3154
Cc1ccc(C(=O)NCCc2ccccc2)cc1N1CCCC1=O	-10	2.5	2	6	7	-1	4997
COc1ccc(NC(=O)CN2CCN(C(C)=O)CC2)cc1S(=O)(=O)N1CCOCC1	-1	2.1	3	-1	4	nt	4039
CCCCC(c1nnnn1CCOC)N1CCN(CC)CC1 (stereo not drawn)	-12	2.5	0	-5	-8	nt	4044
COc1ccc(OC)c(-n2c(-c3cc(-c4ccccc4)n[nH]3)n[nH]c2=S)c1	-7	0.9	-3	22	6	-5	2402
O=c1cc(-c2ccccc2)[nH]c2cc(F)ccc12	-20	0.5	-3	6	1	27	2848
NC(CC(=O)Nc1cccc(C(F)(F)F)c1)=NO	nt	5.9	-3	6	14	nt	nt
CCc1ccc(C(C)NC(=O)C2CCCC2)cc1 (stereo not drawn)	-14	1.5	0	nt	nt	-12	3890
CC(NC(=O)COC(=O)CN1C(=O)NC2(CCCC2)C1=O)c1ccc(F)cc1 (stereo not drawn)	-4	2.4	2	-3	-3	nt	5933
Nc1nnc(SCC(=O)OCc2ccc(Cl)c(Cl)c2)s1	-6	6.3	-4	10	12	0	2008
COc1ccc2[nH]c3c(=O)n4c(nc3c2c1)SCC4	-12	6.2	-7	3	0	1	4466
Cc1ccc(NC(=O)c2nc[nH]c2C(=O)N2CCOCC2)c(C(=O)c2ccccc2)c1	-6	10	10	0	3	6	5538
COCCn1c(SCC(=O)Nc2cccc(OC)c2)nnc1-c1ccccc1	-21	8.6	18	12	-5	0	8103
Cc1occc1C(=O)NN=Cc1ccc(Br)s1	nt	-3.6	-7	4	12	nt	nt
CC(C)c1oc(=O)cc2c1[C@@H](O)[C@H]1OC(=O)[C@@]3(C)C[C@@H](O)[C@@H](O)[C@@]2(C)C13 (stereo partly drawn)	-69	nt	nt	nt	nt	13	4028
O=C(CNS(=O)(=O)c1cccc(Cl)c1)Nc1ccc(-c2nc3ccccc3s2)cc1	-11	6.0	-6	-4	-1	-17	2318

7 records picked at random from those above, as already listed:
SMILES	PrP 5UTR inh	RN4220 kill	Sa ugtP lethal	Mtb hypoxia rep	Mtb hypoxia rep growth	BJeLR lethal	Bead autofluor
Nc1nnc(SCC(=O)OCc2ccc(Cl)c(Cl)c2)s1	-6	6.3	-4	10	12	0	2008
CCc1ccc(C(C)NC(=O)C2CCCC2)cc1 (stereo not drawn)	-14	1.5	0	nt	nt	-12	3890
CC(C)c1oc(=O)cc2c1[C@@H](O)[C@H]1OC(=O)[C@@]3(C)C[C@@H](O)[C@@H](O)[C@@]2(C)C13 (stereo partly drawn)	-69	nt	nt	nt	nt	13	4028
Cc1ccc(NC(=O)c2nc[nH]c2C(=O)N2CCOCC2)c(C(=O)c2ccccc2)c1	-6	10	10	0	3	6	5538
Cc1occc1C(=O)NN=Cc1ccc(Br)s1	nt	-3.6	-7	4	12	nt	nt
NC(CC(=O)Nc1cccc(C(F)(F)F)c1)=NO	nt	5.9	-3	6	14	nt	nt
COc1ccc2[nH]c3c(=O)n4c(nc3c2c1)SCC4	-12	6.2	-7	3	0	1	4466

The listing continues.
SMILES	PrP 5UTR inh	RN4220 kill	Sa ugtP lethal	Mtb hypoxia rep	Mtb hypoxia rep growth	BJeLR lethal	Bead autofluor
CC(C)N(Cc1nc(-c2ccccc2)no1)C(=O)c1ccc([N+](=O)[O-])cc1	-8	1.7	5	14	5	1	4542
Cn1cc(CN2CCC(n3nccc3NC(=O)c3ccccc3Cl)CC2)c2ccccc21	-3	-6.7	-11	-3	-5	11	4403
Cc1ccccc1OCCNC(=O)CSc1ccc(C(F)(F)F)cc1[N+](=O)[O-]	-30	2.2	-3	1	5	-2	2051
O=C(O)CSc1nnc(Cc2ccccc2)n1-c1ccccc1	-2	8.8	15	2	2	6	3184
COc1ccc(NC(=O)/C=C/C(=O)O)c([N+](=O)[O-])c1	-5	5.7	2	12	10	-2	nt
N#Cc1ccc(C(c2nnnn2Cc2ccccc2)N2CCCC2)cc1 (stereo not drawn)	-8	3.2	-2	10	3	5	9825
CCOc1cc2[nH]c(=S)n(CCCN3CCN(C)CC3)c(=O)c2cc1OCC	-4	6.1	8	16	12	nt	4388
COc1ccc(CC(=O)NNC(=O)Cc2ccc(OC)cc2)cc1	nt	-3.9	2	-2	-3	4	nt
C=C(C)CN(CC)C(=O)c1ccc(OC2CCN(S(=O)(=O)N(C)C)CC2)cc1	-27	4.6	2	2	3	6	4583
Cc1ccc(-c2nnc(NC(=O)c3ccco3)o2)c(C)c1	-15	7.8	10	-16	-3	-2	6416
O=C(OCC(=O)c1ccccc1Cl)C1=NN(c2ccccc2)C(=O)CC1	-40	4.2	6	13	4	nt	3996
CCOC(=O)C1C(c2ccc([N+](=O)[O-])cc2)C2C(=O)NN=C2CC1(C)O (stereo not drawn)	nt	2.6	1	3	1	5	5632
COC(=O)c1c(N)n(CCCN2CCOCC2)c2nc3ccccc3nc12	-24	4.0	6	4	8	-3	3967
Cc1ccc(S(=O)(=O)NCCC(=O)OCC(=O)Nc2cccc(S(=O)(=O)NC3=NCCCCC3)c2)cc1	-23	0.6	2	-2	8	-21	4366
COc1ccc(N2CCN(c3ccc(S(=O)(=O)N(C(C)C)C(C)C)cn3)CC2)cc1	-33	3.3	6	-3	-2	0	3576
O=C1c2ccccc2NC(c2ccc(Cl)cc2Cl)N1Cc1ccccc1 (stereo not drawn)	-24	4.8	44	nt	nt	3	2880
Cc1cc(OC(=O)c2ccco2)c2c3c(c(=O)oc2c1)CCC3	-10	3.6	0	-1	5	0	5208
Nc1nncn1C(=O)c1c(Cl)cccc1Cl	-59	2.7	-1	8	9	-5	17890*
COC(=O)c1cnn2c1C(=O)N(Cc1cccs1)CC2	-11	9.3	5	0	-7	1	4515
Cc1ccc(CSc2nnc([C@@H]3CCCN3)o2)cc1	-20	1.5	-4	15	14	7	9087
COc1ccccc1CNC(=O)COC(=O)COc1ccccc1F	-4	2.4	4	6	-1	nt	2827
Cc1cnn(C(=O)c2cc(-c3ccccc3)nc3ccccc23)c1	-9	6.5	0	2	-2	-3	11482
CCNC(=S)Nc1ccc2c(c1)oc1ccccc12	-58	2.8	4	6	-1	-10	5879
O=C(Nc1cccn(Cc2ccccc2)c1=O)NC1CCCCC1	-19	-4.3	3	3	15	8	4366
O=C(c1ccco1)N1CCN(c2ccc(Cl)c(Cl)c2)CC1	-39	14	-7	5	9	13	11871
COc1cccc(C(=O)Nc2ccc(NC(C)=O)cn2)c1	-33	-2.0	3	nt	nt	-4	3943
O=C1NCCN1CCNS(=O)(=O)c1ccc(F)c(Cl)c1	-8	4.9	12	1	-2	4	4513
O=C(Cc1ccc([N+](=O)[O-])cc1)N/N=C/c1cccnc1	-17	nt	nt	nt	nt	-5	4593
CCC1=[N+](CC(=O)c2ccc(Br)cc2)CCn2c(C)ccc21	-43	2.9	1	22	27	5	5105
C=C(C)C(=O)N1CC2(CC(c3cccc(NC(=O)CCCCC)c3)=NO2)C[C@H]1C(N)=O (stereo partly drawn)	6	nt	nt	nt	nt	-2	2881
Cc1ccc(CNC(=O)C2CCCN(c3nc(C)cc(C)n3)C2)cc1 (stereo not drawn)	19	7.5	10	4	9	-15	4546
CCCOc1ccc(-c2nnn(CC(=O)c3ccc4c(c3)OCCO4)n2)cc1	-27	1.1	-2	11	12	-7	9481
CCOC(=O)/C=C1/SCC(=O)N1CCOc1cccc(Br)c1	-29	5.6	-12	0	13	nt	3601
C(=Nc1cccc2c(N=Cc3ccco3)cccc12)c1ccco1	-29	nt	nt	nt	nt	-8	4249
CN(C)Cc1c(C(=O)NN=Cc2ccccc2OCc2ccc(F)cc2)nnn1-c1nonc1N	nt	5.8	2	8	-7	nt	nt
Cc1cc2cc3c(cc2nc1SCC(=O)Nc1nc(C)c(C)s1)OCO3	-25	8.3	-3	6	9	-5	6031
CC(=O)N1CCN(C(=O)CSc2nnc(C)n2-c2ccccc2)CC1	-13	4.3	12	2	-2	11	3523
O=c1ccc(-c2ccccc2)nn1Cc1ccccc1F	-24	2.8	7	14	3	-1	3556
Cc1ccc(NC(=O)Cn2nnc3ccccc32)cc1	-43	4.8	-4	3	-3	3	?
CCCc1cc(=O)oc2c(C)c(OCC(=O)Nc3ccc(CN4CCOCC4)cc3)ccc12	12	-4.8	4	-2	0	1	4381
CN(C)CCCN1C(=O)C(O)=C(C(=O)c2cc3ccccc3o2)C1c1ccccn1 (stereo not drawn)	-2	2.2	12	-1	14	nt	?
CCC1/C(=N\O)CC(c2ccco2)NC1c1ccco1 (stereo not drawn)	-22	nt	nt	nt	nt	-8	10823
COc1ccc2c(CC(=O)OCC(=O)Nc3ccc4c(c3)OCO4)coc2c1	-18	5.1	3	7	1	-16	8337
Cc1ccc(-n2c(SCC(=O)NCC3CCCO3)nc3n[nH]c(C)c3c2=N)cc1Cl (stereo not drawn)	-10	11	-11	nt	nt	4	4316
Cn1c(Cn2c3ccccc3c3ccccc32)n[nH]c1=S	-9	1.4	-3	12	4	7	4842
O=C(COC(=O)c1cc([N+](=O)[O-])ccc1N1CCOCC1)c1ccc(Br)cc1	-31	-2.2	-17	-2	-3	-8	4717
O=C(CSc1nccc(=O)[nH]1)c1ccco1	-3	-0.5	8	14	3	-1	4357
O=[N+]([O-])c1cccc(C(=S)N2CCN(c3ccccc3)CC2)c1	-11	4.9	1	15	11	8	1929
O=C(Nc1ccc(F)cc1)N1CCCC(c2nc3c(nnn3Cc3ccccc3Cl)c(=O)[nH]2)C1 (stereo not drawn)	-16	1.5	3	11	-3	0	3422
CCn1nc(CC(=O)Nc2nnc(CC(=O)N3CCCCC3)s2)c2ccccc2c1=O	-4	3.1	1	9	4	-4	2997
Continuation:
SMILES	PrP 5UTR inh	RN4220 kill	Sa ugtP lethal	Mtb hypoxia rep	Mtb hypoxia rep growth	BJeLR lethal	Bead autofluor
CCCCn1c(N)c(N(CCOC)C(=O)COC(=O)CCOc2ccccc2C)c(=O)[nH]c1=O	-5	0.2	6	-5	7	0	5633
CCCCN(CCCC)CCNC(=O)CN1C(=O)COc2ccc(S(=O)(=O)N3CCOCC3)cc21	-20	1.8	5	3	-5	2	5469
CC1CCC(C(C)C)C(OCC(O)CNC(C)(C)C)C1 (stereo not drawn)	-25	-0.9	-5	7	7	8	6301
Cc1onc(-c2c(F)cccc2Cl)c1C(=O)Nc1cccc(S(=O)(=O)N2CCOCC2)c1	-6	0.2	-4	-5	4	nt	3930
O=C(Nc1cccc2ccccc12)N1CCN(Cc2ccccc2)CC1	1	-1.8	8	nt	nt	-8	2564
O=C(c1cc2cc(F)ccc2[nH]1)N1CCN(Cc2ccc3c(c2)OCO3)CC1	13	-2.7	-6	0	-1	9	?
COc1cc(OC)cc(-c2nc(-c3cccs3)no2)c1	-44	nt	nt	nt	nt	-10	4445
CC(C)NS(=O)(=O)c1ccc(CCC(=O)N2CCc3ccccc3C2)cc1	-10	7.8	3	13	0	-1	2577

Compounds above that have two or more sulfur atoms:
SMILES	PrP 5UTR inh	RN4220 kill	Sa ugtP lethal	Mtb hypoxia rep	Mtb hypoxia rep growth	BJeLR lethal	Bead autofluor
Nc1nnc(SCC(=O)OCc2ccc(Cl)c(Cl)c2)s1	-6	6.3	-4	10	12	0	2008
O=C(CNS(=O)(=O)c1cccc(Cl)c1)Nc1ccc(-c2nc3ccccc3s2)cc1	-11	6.0	-6	-4	-1	-17	2318
Cc1ccc(S(=O)(=O)NCCC(=O)OCC(=O)Nc2cccc(S(=O)(=O)NC3=NCCCCC3)c2)cc1	-23	0.6	2	-2	8	-21	4366
Cc1cc2cc3c(cc2nc1SCC(=O)Nc1nc(C)c(C)s1)OCO3	-25	8.3	-3	6	9	-5	6031
